AID504770 – growth inhibitors of E. coli YBA685 in a screen for V. cholerae RctB (chromosome II replication) inhibitors. E. coli YBA685 rctB-dependent plasmid, OD600 growth, 3 h; stronger effect = lower value. z-score (concentration not given with the values). hit rate 0.27% among 130,000. AID 504770;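 active = z-score under -2 on both plates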;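 also: wells of about 30 µL received 100 nL stock; score is relative to mean and SD of the test wells; the first replicate is given; strong numbers were not always called active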
CapD inh – inhibitors of Bacillus anthracis CapD enzyme. hit rate 0.23% among 140,000. AID 492967. purified CapD enzyme, fluorescence intensity read-out; stronger effect = lower value; some hits fall short of the stated cut. z-score (concentration not given with the values);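 active = z-score under -4 in either of two replicates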;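 also: stock transfer was 100 nL into about 40 µL; score is relative to mean and spread of the plate; one replicate is shown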
* = called active by the depositor; i = inactive; / = not tested or not shown. Compounds as they come, and some 0.41% of all compounds hit somewhere here.

SMILES | AID504770 | CapD inh
COc1cc(C2NC(=O)N(C)C(C)=C2C(=O)OCCOc2ccccc2)cc(Br)c1O (centres undefined) | / | -0.18
CS(=O)(=O)c1ccc(F)c(NC(=O)c2ccccc2)c1 | / | 0.14
N#Cc1c(N)n(-c2ccc(O)cc2)c2nc3ccccc3nc12 | 1.3 | -0.035
CCN(CC)c1ccc2cc(-c3nc(-c4ccc(C)c(C)c4)cs3)c(=O)oc2c1 | / | -0.45
O=C(NC(O)C(=O)c1ccccc1)c1ccccn1 (centres undefined) | -1.2 | 0.055
CCOC(=O)c1c(CSc2cccs2)n(C)c2cc(Br)c(O)cc12 | / | -0.26
CCC(Sc1nc(NCC2CCCO2)c2ccccc2n1)C(=O)Nc1ccc2c(c1)OCO2 (centres undefined) | / | -0.08
CCOC(=O)N1CCC(NC(=O)CSc2nc3ccccc3n2S(=O)(=O)c2cccc([N+](=O)[O-])c2)CC1 | / | 0.005
COc1ccc(N2CCN(C(=O)COc3cc(=O)n(C)c4ccccc34)CC2)cc1 | 1.2 | -0.005
Cn1cccc1CNC(=O)c1cc(F)cc2c1OCOC2 | -0.9 | 0.48
CCC(=O)Nc1cccc(-c2ccc(N3CCC(C)CC3)nn2)c1 | -0.15 | /
Cn1cc(-c2ccc(C(=O)N3CCN(C(c4ccccc4)c4ccccc4)CC3)cn2)cn1 | / | -0.29
COc1ccc(C(CC(=O)O)NS(=O)(=O)c2cccc3nsnc23)cc1 (centres undefined) | / | -0.33
O=C(O)CCCC(=O)N1CCC(c2nc(-c3cccc(C(F)(F)F)c3)no2)CC1 | / | -0.2
CNC(=O)CSc1ccc(Cl)cc1 | -0.5 | -0.09
O=S(=O)(c1ccccc1)n1ccc(-c2ccc3c(c2)CCO3)n1 | 0.25 | -0.22
NS(=O)(=O)c1ccc(CCNc2nc3c(-c4ccc(Cl)cc4)nnn3c3ccccc23)cc1 | -0.5 | -0.065
Cc1ccc(CSc2nc3ccc(C(=O)NCCN4CCCC4)cc3n2C)cc1 | -0.05 | -0.075
CCc1nc2ccccc2c(=O)n1CCCCn1c(CC)nc2ccccc2c1=O | -2.1 | -0.13
CCOC(=O)N1CCN(S(=O)(=O)/C=C/c2ccccc2)CC1 | 0.25 | -0.92
Oc1ccccc1C1OC2CCCCC2C2=CCCCC21 (centres undefined) | -0.15 | /
Cc1ccc(S(=O)(=O)N2CCN(c3ccccc3)CC2)s1 | 2.9 | /
CCOC(=O)CN1CCN(C=O)CC1 | 0.15 | 0.12
CCCCC(=O)N1c2ccc(OC)cc2C(=C2SC(C(=O)OCC)=C(C(=O)OCC)S2)C(=S)C1(C)C | / | -0.29
CC[C@H]1OC(=O)C[C@@H](O)[C@H](C)[C@@H](O[C@@H]2O[C@H](C)[C@@H](O[C@H]3C[C@@](C)(O)[C@@H](O)[C@H](C)O3)[C@H](N(C)C)[C@H]2O)[C@@H](CC=O)C[C@@H](C)C(=O)/C=C/C(C)=C/[C@@H]1CO[C@@H]1O[C@H](C)[C@@H](O)[C@@H](OC)[C@H]1OC | 0.7 | /
CCc1nc2scc(-c3cccs3)c2c(=O)o1 | / | -0.98
Cc1ccc(C(=O)NCC(=O)NC2CC2)cc1 | 0.15 | /
Cc1ccc2c(c1)C1CN(C)CCC1N2C(=S)Nc1cccnc1 (centres undefined) | 0.15 | /
COc1cc(CNc2ccc3[nH]c(=O)[nH]c3c2)cc(Br)c1OCC(=O)NC(C)(C)C | 0.4 | -0.46
COc1ccc2c(c1)N(C)/C(=c1/s/c(=C3/C(=O)N(C)C(=S)N3c3ccccc3)n(C3CCCCC3)c1=O)S2 | / | -0.35
O=C(NCCCn1ccnc1)N1CCN(c2cccc(C(F)(F)F)c2)CC1 | / | -0.17
O=C(CN1C(=O)c2ccccc2C1=O)Nc1ccccc1C(=O)N1CCCC1 | -0.55 | /
COC(=O)[C@]1(N=[N+]=[N-])c2ccccc2C[C@@H]1O | / | 0.28
CSc1nc(Cl)c2c(n1)N(C1CCCCC1)CC2 | / | -0.05
COCC(C)n1c(C)csc1=Nc1ccc(Cl)c(F)c1 (centres undefined) | 0.9 | /
COc1cccc(C2C3=C(CC(c4ccccc4)CC3=O)Nc3ccccc3N2C(=O)CCC(=O)O)c1 (centres undefined) | / | 2.2
CC(C)Cc1ccc(C(C)C(=O)N2CCN(c3ccc(C(F)(F)F)cn3)CC2)cc1 (centres undefined) | -2.2 | 0.56
Cc1ccc(S(=O)(=O)N(CC(=O)Nc2ccc(S(=O)(=O)N3CCCCC3)cc2)c2ccccc2)cc1 | / | -0.28
CCOC(=O)c1sc(NC(=O)c2ccc(F)cc2)nc1-c1ccccc1 | -0.05 | -0.11
COc1cc(S(=O)(=O)N(C)C2CCCCC2)c(OC)cc1Cl | 0.6 | 0.03
O=C(CSc1ncn[nH]1)Nc1nccs1 | 0.05 | /
CN(C)S(=O)(=O)c1cccc(CSc2nnc(Cc3cccs3)n2C2CCCCC2)c1 | -0.85 | /
CCOC(=O)C1=C(N)OC2=C(C(=O)CCC2)C1c1ccc2c(c1)OCO2 (centres undefined) | / | -0.35
Nc1cc(C2CC2)nn1-c1ccccc1 | / | 0.33
COc1cccc(CNC(=O)N2CC3CCCN3c3ccccc32)c1 (centres undefined) | -0.7 | 0.2
N#CCc1c2ccccc2c(CC#N)c2ccccc12 | 2 | 5.8
CC1C/C(=N/Nc2nc3ccccc3[nH]2)CC(C)(C)C1 (centres undefined) | -0.7 | /
Clc1ccc(OCCN2CCN(c3nc4ccccc4c4nc(-c5ccncc5)nn34)CC2)cc1 | -0.5 | 0.5
Nc1nc(=S)c2[nH]cnc2[nH]1 | -0.05 | 0.26
COc1ccc(C2=NC(=O)/C(=C\c3cc(OC)c(OC)c(OC)c3)O2)cc1 | -0.5 | -0.67
Cc1ccc(S(=O)(=O)Oc2ccc3c(c2)OC(c2ccccc2)CC32CC(C)(C)NC(=S)N2)cc1 (centres undefined) | / | -0.12
O=S(=O)(c1ccccc1Cl)N1CCC(Cc2ccccc2)CC1 | / | 0.46
COc1ccc(Br)cc1/C=C1\N=C(c2cc([N+](=O)[O-])ccc2Cl)OC1=O | / | 0.19
O=C(c1cccs1)N1c2ccccc2C=Cc2ccccc21 | -0.65 | 1.6
CC1(C)CC(=O)C2=C(C1)NC1=C(C(=O)c3ccccc31)C2c1cc([N+](=O)[O-])ccc1O (centres undefined) | / | -0.14
CSc1nc(CN2CCN(S(=O)(=O)Cc3ccccc3)CC2)cc(=O)[nH]1 | -0.2 | /
N#CCC(=O)NS(=O)(=O)c1ccc(Cl)cc1 | -0.5 | 0.5
CCOC(=O)CNc1nc2ccccc2n2cnnc12 | -0.9 | 2.9
CCOC(=O)c1nnn2c1nc(N1CCN(c3ccccc3)CC1)c1ccccc12 | -0.05 | 4.8
CC(=O)N1CCc2cc(S(C)=O)ccc21 (centres undefined) | / | -0.33

(further entries)
SMILES | AID504770 | CapD inh
CC1(C)NC(=O)N(Cc2ccccc2)C1=O | -0.2 | 0.36
CC(=O)Nc1ccc(S(=O)(=O)N(C)S(=O)(=O)c2ccc(F)cc2)cc1 | -0.75 | /
CCc1cc2c(=O)c(Oc3ccc(F)cc3)c(C)oc2cc1O | 0.6 | 0.94
CCOC(=O)c1sc(=S)n(-c2ccc(F)cc2F)c1N | -0.15 | -1
Cc1cc(Oc2ccccc2)nc(SCc2ccccc2)n1 | -0.25 | 85
O=C(NC1CCN(Cc2ccc(N3CCCC3)cc2)C1)c1ccc(CSc2ccccn2)o1 (centres undefined) | / | -0.82
CCOC(=O)C(C)Sc1nnc(Cc2cc(=O)[nH]c(=O)[nH]2)n1-c1cccc(OC)c1 (centres undefined) | 0.35 | -0.16
COC(=O)c1sccc1NC(=O)c1ccc2nonc2c1 | -0.4 | 0.68
COc1ccccc1NC(=O)c1oc2ccccc2c1NC(=O)CSCc1ccccc1 | -1.1 | -0.21
COc1cc2ccccc2cc1C(=O)OCC(=O)Nc1ccccc1Cl | 1.1 | 5.3
CCOC(=O)CNc1ccccc1C#N | -0.85 | 13
Oc1ccc(C(=S)N2CCCCC2)cc1 | 0.5 | 36
CC(SC1CCCCC1)C(=O)Nc1ccc(S(N)(=O)=O)cc1 (centres undefined) | -0.1 | /
O=C(Oc1ccccc1N1CCOCC1)c1ccco1 | -1 | -0.64
Cn1ncc2c(=O)n(CC(=O)NC34CC5CC(CC(C5)C3)C4)cnc21 | 0 | /
O=C(c1ccc2c(=O)n3c(nc2c1)CCCCC3)N1CCCC1 | 0.6 | 0.37
O=C(Nc1cccnc1N1CCOCC1)c1cccs1 | -0.3 | -0.34
CC(=O)N(C)c1ccc(N=Cc2ccc(C)o2)cc1 | -0.1 | 0.63
COc1cccc(OCC(=O)N(C)C2CCS(=O)(=O)C2)c1 (centres undefined) | -0.4 | i
Cc1ccc(S(=O)(=O)C2(C(=O)N3CCc4ccccc43)CC2)cc1 | 1.2 | 0.97
CCC(C)N1CCN(C2CCCCC2)CC1 (centres undefined) | -0.4 | /
C=CCNCc1ccc(-c2ccc(C(C)O)cc2)o1 (centres undefined) | -0.15 | /
CC1CCCC(C)N1S(=O)(=O)c1ccccc1 (centres undefined) | -0.5 | /
CC(C)c1ccc(O)cc1 | -2.5 | /
COc1ccc(C2CC(=O)C3=C(C2)Nc2ccccc2NC3c2cc3c(cc2[N+](=O)[O-])OCO3)cc1OC (centres undefined) | / | -0.61
O=S1(=O)CCN(C2CCN(Cc3ccccc3)CC2)CC1 | -0.9 | -0.26
Nc1cc(N)nc(SCc2cccnc2)n1 | -1.6 | 0.48
CCn1c(O)c(C=Nc2ccc(N3CCOCC3)c(Br)c2)c(=O)n(CC)c1=S | 0.25 | -0.25
O=c1[nH]c2ccc(N=Cc3ccc(F)cc3)cc2[nH]1 | 0.2 | /
CNC(=S)N/N=C/c1cc(C)ccc1C | 0.8 | /
CCNc1nc(NCC)nc(SCCOC(=O)c2ccccc2)n1 | / | -0.055
O=C1C2C3c4ccccc4C(C=Nc4cccc5ccccc45)(c4ccccc43)C2C(=O)N1c1ccccc1 (centres undefined) | / | 10
CC1=NN(c2ccc(C(=O)NC(C)Cc3ccc(Cl)cc3)cc2)C(=O)C1 (centres undefined) | / | -1.2
O=C(Nc1ccc(Br)cc1)/C(=C/c1cccc([N+](=O)[O-])c1)NC(=O)c1ccccc1Br | / | 0.56
COc1ccc(NC(=O)COC(=O)C2CCCCN2S(=O)(=O)c2cccc3nsnc23)cc1 (centres undefined) | 1.1 | /
CCOc1ccc(NC(=O)c2cc(Cl)nc3ccccc23)cc1 | 2 | -1.1
N#CC1=C2NC(=O)c3c(sc4c3CCCC4)N2C2=C(C(=O)CCC2)C1c1ccc([N+](=O)[O-])cc1 (centres undefined) | / | -0.12
COc1ccc(N2CCN(c3nc(NCCc4ccc(OC)c(OC)c4)nc(OC)n3)CC2)cc1 | 2 | -0.29
O=C(Nc1ccccc1)C(Cc1cccs1)c1nn[nH]n1 (centres undefined) | 0.65 | /
CCOC(=O)N1CCC(c2cc(=O)n3[nH]ccc3n2)CC1 | 1.4 | 5.5
Cc1c(C(=O)N2CCN(C)CC2)sc2ncnc(N3CCN(c4ccccn4)CC3)c12 | / | -0.29
CCNc1nc2nonc2nc1NCC | 0.1 | -1.4
CCCn1cnc2cc(NCc3ccc(OCC)cc3)ccc21 | 0.55 | 53
O=C1CC(C(=O)Nc2ccc(C(=O)O)cc2)C(c2ccccc2)O1 (centres undefined) | 0 | 0.07
c1coc(CNc2nc(Nc3ccc4c(c3)OCO4)nc(N3CCOCC3)n2)c1 | / | -0.24
Cc1ccc(NC(=O)c2noc3c2CCCC3)cc1 | 0.05 | -0.83
CC(=O)Nc1nc(C)c(Cc2ccccc2)c(=O)[nH]1 | -0.65 | -0.62
CC1CC(C)CN(C(=O)COC(=O)c2ccccc2NC(=O)c2ccco2)C1 (centres undefined) | -0.25 | /
O=C(CSc1ccc(S(=O)(=O)N2CCCC2)cn1)Nc1ccc2c(c1)OCCCO2 | 0.05 | /
COc1ccc(C2Nc3ccccc3C(=O)N2c2ccc(C)cc2)cc1CN1CCOCC1 (centres undefined) | / | 9.4
Cc1c(/C=C(/C#N)C(=O)Nc2ccc(Cl)cc2)c2ccccc2n1C | -0.1 | 0.32

Filtered by structure, the compounds so far with a Cl atom.
SMILES | AID504770 | CapD inh
CNC(=O)CSc1ccc(Cl)cc1 | -0.5 | -0.09
NS(=O)(=O)c1ccc(CCNc2nc3c(-c4ccc(Cl)cc4)nnn3c3ccccc23)cc1 | -0.5 | -0.065
CSc1nc(Cl)c2c(n1)N(C1CCCCC1)CC2 | / | -0.05
COCC(C)n1c(C)csc1=Nc1ccc(Cl)c(F)c1 (centres undefined) | 0.9 | /
COc1cc(S(=O)(=O)N(C)C2CCCCC2)c(OC)cc1Cl | 0.6 | 0.03
Clc1ccc(OCCN2CCN(c3nc4ccccc4c4nc(-c5ccncc5)nn34)CC2)cc1 | -0.5 | 0.5
O=S(=O)(c1ccccc1Cl)N1CCC(Cc2ccccc2)CC1 | / | 0.46
COc1ccc(Br)cc1/C=C1\N=C(c2cc([N+](=O)[O-])ccc2Cl)OC1=O | / | 0.19
N#CCC(=O)NS(=O)(=O)c1ccc(Cl)cc1 | -0.5 | 0.5
COc1cc2ccccc2cc1C(=O)OCC(=O)Nc1ccccc1Cl | 1.1 | 5.3
CC1=NN(c2ccc(C(=O)NC(C)Cc3ccc(Cl)cc3)cc2)C(=O)C1 (centres undefined) | / | -1.2
CCOc1ccc(NC(=O)c2cc(Cl)nc3ccccc23)cc1 | 2 | -1.1
Cc1c(/C=C(/C#N)C(=O)Nc2ccc(Cl)cc2)c2ccccc2n1C | -0.1 | 0.32

Bioassay records (PubChem BioAssay)
